High-throughput results as filed in PubChem BioAssay.
Six1-Eya2 blk: blocks human Six1 binding to Eya2. Q15475+O00167. AlphaScreen GST-Six1/His-Eya2 binding, biochemical; active compounds read low; control for the full effect not named in the record. activity change, % (test concentration not listed). actives 0.56% (n = 360,000). AID 651725; in the data active = activity change below about -65%; inconclusive = about -30% to -65%; inactive = above about -30%; also: % is scaled to controls: 0 for no effect and ±100 for the full control effect
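AlphaScreen luminescence read after one hour at 37 °C in darkness. Pin-transferred compounds met GST-Six1 and His-Eya2 protein (5X stock 250 nM/500 nM) plus glutathione donor and Ni-chelate acceptor beads (5X, 50 ug/mL).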
TRPV1 potentiator: enhances activation of the human vanilloid receptor TRPV1; actives 0.02% (n = 320,000); TRPV1-expressing cells, Fluo-8 calcium influx, capsaicin EC20 potentiation; host cell line not named in the record; control for the full effect not named in the record; potentiation, % at 8.33 µM; Q8NER1; active means potentiation above 80%; inconclusive means 30% to 80%; inactive means below 30%; also: 0% is about no effect
Target sequence (Q8NER1 whole entry, looked up): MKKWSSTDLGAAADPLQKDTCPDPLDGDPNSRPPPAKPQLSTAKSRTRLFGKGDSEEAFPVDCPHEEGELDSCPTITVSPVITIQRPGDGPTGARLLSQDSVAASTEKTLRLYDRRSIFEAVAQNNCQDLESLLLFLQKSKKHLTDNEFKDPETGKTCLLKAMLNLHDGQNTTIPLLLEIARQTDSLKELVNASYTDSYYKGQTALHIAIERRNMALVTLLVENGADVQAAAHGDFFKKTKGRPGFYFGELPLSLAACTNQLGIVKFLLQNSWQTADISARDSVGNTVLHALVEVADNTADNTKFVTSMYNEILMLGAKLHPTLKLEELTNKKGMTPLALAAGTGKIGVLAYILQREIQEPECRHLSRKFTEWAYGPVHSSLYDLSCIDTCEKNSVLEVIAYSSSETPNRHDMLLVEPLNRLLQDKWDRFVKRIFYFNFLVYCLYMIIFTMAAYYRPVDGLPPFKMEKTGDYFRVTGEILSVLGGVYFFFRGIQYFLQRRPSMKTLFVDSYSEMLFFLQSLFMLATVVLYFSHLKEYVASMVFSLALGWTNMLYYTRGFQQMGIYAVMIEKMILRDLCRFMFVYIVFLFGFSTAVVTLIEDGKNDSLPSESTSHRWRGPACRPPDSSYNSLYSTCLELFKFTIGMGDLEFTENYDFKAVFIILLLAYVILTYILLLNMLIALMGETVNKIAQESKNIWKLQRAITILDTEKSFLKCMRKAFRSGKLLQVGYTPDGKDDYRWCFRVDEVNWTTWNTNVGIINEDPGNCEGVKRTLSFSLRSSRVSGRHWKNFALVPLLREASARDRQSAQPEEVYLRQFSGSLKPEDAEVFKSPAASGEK
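Cells expressing TRPV1 were dye-loaded with Fluo-8 and read kinetically: 10 s baseline, 3 min after compound (agonist portion), then 2 min after EC20 capsaicin (allosteric enhancer portion). Calcium-bound dye fluorescence at 480/520 nm.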
PINK1 modulator: changes PINK1 expression | Potency, µM (series often up to 76.6 µM), for the others: at the top dose activation (PINK1 increase), actives largely listed as activators | actives 0.2% (n = 410,000) | PINK1 immunofluorescence, high-content cytometry, 24 h; active = well fitted activation curve with a large enough effect; inconclusive = small, poorly fitted or top-dose-only effect; inactive = flat fitted curve, though single readings scatter; cell line not stated here;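 also: potency is read from the fitted curve at half-maximal effect; % of control where 0% means no effect; nearly all actives have a fitted effect of over 65% in size; a mitochondrial uncoupler was the plate control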
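Stable cell line, 250 cells/well, 12 h attachment; compounds pinned at 5 concentrations, 24 h; CCCP control. Fixed with nuclear dye, primary antibodies 12 h at 10 degrees C, secondary plus cell stain; laser-scanning cytometer read.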
Sfp inh: blocks B. subtilis Sfp PPTase activity | Q9F4F7 | Biochemical Sfp PPTase activity, qHTS | Potency, µM, inactives show max response, negative = inhibition, most hits filed as inhibitors | actives 3.5% (n = 310,000); active = well fitted inhibition curve with a large enough effect; inconclusive = small, poorly fitted or top-dose-only effect, or another doubt; inactive = no such curve, though single readings can be large or run the other way;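 also: the enzyme is Sfp with the accession as filed and its product quenches rhodamine fluorescence; potency is read from the fitted curve at half-maximal effect; 0% = enzyme reaction without inhibitor and -100% = no enzyme wells; top concentration of the series not given in the record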
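After 15 min at room temperature with compound, 15 nM Sfp received 5 uM rhodamine-CoA plus 12.5 uM BHQ-2-ybbR (50 mM Hepes pH 7.6, 10 mM MgCl2). Rate came from the fluorescence difference over 30 min, ex 525/em 598 nm.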
CtBP-E1A blk: CtBP/E1A binding inhibition | activity change, % (no concentration beside the values) | actives 0.49% (n = 340,000) | AlphaScreen GST-E1A/His-CtBP binding, 1536-well; active compounds read low; control for the full effect not named in the record; in the data active means activity change below about -65%; inconclusive means about -30% to -65%; inactive means above about -30%; also: % is scaled to controls: 0 for no effect and ±100 for the full control effect
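Steps: dispense buffer (Tris pH 8.0, NaCl 300 mM, TCEP 1 mM, BSA, Tween 20); add 5X protein mix (GST-E1A, His-CtBP, 125 nM each); pin 23 nL compound; 2 h at 37 °C, dark; add 5X beads (50 ug/mL); 1 h; read.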
D2 ag: activates the human D2 dopamine receptor; AID 624465; actives 0.084% (n = 360,000); P14416; activation, % (no concentration beside the values); DiscoveRx PathHunter D2 beta-arrestin, luminescence, 90 min; 100% = 57 uM dopamine signal; in the data active = activation above about 40%; inconclusive = about 15% to 40%; inactive = below about 15%; also: compound concentration not given in the record; the text of the record calls up to 30% inactive
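Agonist mode: compounds alone added to overnight-plated D2 PathHunter cells for 90 min at 37 C, with 57 uM final dopamine (EC100) defining full response. Beta-arrestin recruitment detected by chemiluminescent reagent, read after 1 h at ambient temperature.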
D2 PAM: positive allosteric modulators of human D2 dopamine receptor; DiscoveRx D2 beta-arrestin cells, luminescence, 90 min; 100% = 57 uM dopamine signal; potentiation, % (no concentration beside the values); actives 0.23% (n = 360,000); AID 624464; active = potentiation of 50% or more; inconclusive = 30% to 50%; inactive = 30% or less;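 also: compound concentration not given in the record; tested on top of an EC20 dose of dopamine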
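PathHunter D2 cells, attached overnight at 37 deg C, received compound in DMSO plus dopamine at EC20 (50 nM final) for 90 min at 37 deg C. Beta-arrestin recruitment was read as luminescence after 1 h with detection reagent at ambient temperature.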
Starred values were filed as active, the others as inactive; u = inconclusive; x = no result given; [ ] = another dose, or the depositor's remark.

SMILES	Six1-Eya2 blk	TRPV1 potentiator	PINK1 modulator	Sfp inh	CtBP-E1A blk	D2 ag	D2 PAM
N#Cc1ccc(NC(=O)c2sc3cc(C(F)(F)F)cnc3c2-c2cccs2)cc1	8	10	u	6%	-6	-1.0	8
S=C(Nc1cccc2ccccc12)NN1CCCCCC1	0	x	-1.6%	x	1	6.8	0
Cn1c(COc2ccccc2)nnc1SCC(=O)NNC(=O)C1CCCCC1	8	11	1.0%	1%	-17	-1.7	-4
COCC(C)NC(=O)c1cc(S(=O)(=O)N2CCCCC2)ccc1N1CCOCC1 (stereo not drawn)	12	9	-1.3%	12%	-3	-1.9	-9
O=C(CSc1c2c(nc3cc(Cl)ccc13)CCCC2)NCc1ccco1	-10	8	-1.2%	u	-6	-2.2	-7
COc1ccc(/C=N\NC(=O)c2nn(C)cc2Cl)cc1CN1CCOCC1	2	4	-2.6%	14%	-21	-5.6	-6
Cc1cc(C)c2nc(N3CCCC3)c(C#N)cc2c1	43	9	1.9%	-7%	25	-2.5	-7
COC(=O)c1cc(OC)c(OC)cc1NC(=O)Nc1ccccc1OC	0	-1	x	12%	-3	4.3	-7
COc1ccc(-n2c(=S)[nH]c3cc(C(=O)N(C)Cc4ccccc4)ccc3c2=O)cc1	2	7	0.9%	2%	0	-4.0	-14
CCCCn1c(N)c(N(Cc2ccccc2OC)C(=O)C(C)Oc2ccc(Br)cc2)c(=O)[nH]c1=O (stereo not drawn)	2	x	4.7%	x	3	1.3	-3
CS(=O)(=O)N1CCN(c2ccc(NC(=O)c3ccc(Br)o3)cc2)CC1	0	6	1.0%	11%	9	-3.7	-8
Nn1cnn(Cc2ccccc2)c1=S	-8	6	0.4%	u	-9	-1.8	0
COc1ccccc1OCCN1C(=O)S/C(=C\c2ccco2)C1=O	-17	7	3.1%	-25%	-11	-0.8	11
COc1ccc(C(CCNCc2ccccc2F)c2ccc(F)cc2)cc1 (stereo not drawn)	10	-32	-0.3%	-17%	16	-11	-26
COc1ccc(C(=O)N2N=C(c3cccs3)CC2c2ccccc2O)cc1 (stereo not drawn)	-6	10	-1.5%	-22%	-7	0.4	-2
Cc1ccc(C(C)C)cc1S(=O)(=O)Nc1ccncc1	8	-7	0.9%	4%	x	-0.2	-7
Cc1ccc(SCC(=O)Nc2ccc3c(c2)OCCO3)cc1	0	-1	4.6%	-3%	-2	1.2	1
COc1ccc(O)c(C(=O)c2cnc3c(c2)c(=O)[nH]c(=O)n3C)c1	-25	-4	2.2%	-6%	-17	-8.6	-10
Cc1cc(=O)[nH]c2ccc(Cl)cc12	2	u	-1.2%	-11%	6	-3.0	-10
CN(C)S(=O)(=O)c1cccc(NC(=O)CNCC2CCCCC2)c1	-1	-6	-2.7%	u	x	4.0	-21
COc1ccccc1/C=C/C=N/n1c(-c2ccncc2)n[nH]c1=S	5	11	-1.5%	2%	-11	-0.2	2
COc1ccc(CCNC(=O)CNC(=O)c2ccccc2Br)cc1OC	5	3	0.8%	20%	0	-0.9	0
COc1ccc(/C=N\NC(=O)c2ccccc2F)cc1COc1ccc(F)cc1	-1	-9	9.4%	18%	-6	-1.0	-5
CCn1nc(NC(=O)c2ccco2)c2cc3ccc(C)cc3nc21	2	-8	1.4%	2%	0	-9.7	-5
O=C(COC(=O)CN1C(=O)NC2(CCCC2)C1=O)Nc1ccccc1C(F)(F)F	-6	23	-1.9%	x	10	-4.9	-3
SMILES	Six1-Eya2 blk	TRPV1 potentiator	PINK1 modulator	Sfp inh	CtBP-E1A blk	D2 ag	D2 PAM
C/C=N/NC(=O)CCNC(=O)c1ccccc1	-3	9	-0.6%	-7%	2	-0.9	1
CCCc1nc2c3ccccc3ccn2c1CC(C)(C)C	-18	x	u	x	-2	-3.1	-8
CCn1cc(C(=O)NCCc2ccccc2)c(=O)c2cc(S(=O)(=O)N(C)C)ccc21	9	-10	4.1%	-3%	5	0.4	-4
COc1ccc(-n2nc(C(=O)NCC(=O)N3CCN(C)CC3)c3ccccc3c2=O)cc1	-4	-8	0.3%	0%	8	-2.1	-8
C/C=C/C(=O)OCC(=O)Nc1ccc(SC(F)F)cc1	-12	-3	-1.2%	14%	4	0.4	-6
COc1ccc(Cl)cc1C(=O)NNC(=O)c1nn(C)c(=O)c2ccccc12	-18	x	2.0%	x	x	-4.2	0
O=C(NCCN1CCN(c2ccccc2)CC1)c1ccc2c(c1)[nH]c(=S)n1c3ccccc3nc21	-22	-10	3.1%	10%	2	3.0	-25
CCNc1nc(SCc2ccccc2)nc(N2CCOCC2)n1	3	-6	7.1%	4%	-1	-1.8	-8
COc1ccc(NS(=O)(=O)c2c(C)n(C)c(=O)n(C)c2=O)cc1OC	6	x	-0.5%	1%	5	-2.4	-4
Cc1cnnc2c1-c1no[n+]([O-])c1CC2	0	4	-1.6%[38.3 µM]	0%	-12	-1.4	-5
CCNC(=O)C1(C)CCCN(C(=O)c2cc3ccccc3s2)C1 (stereo not drawn)	9	x	2.2%	x	5	-3.5	-6
Cn1c(C(=O)NCCN2CCOCC2)cc2c(=O)n3ccccc3nc21	-4	1	2.4%	7%	x	-3.9	-9
COc1ccc(C=O)cc1CN1CCCN(Cc2ccccc2F)S1(=O)=O	2	-2	1.6%	-4%	5	0.3	1
CN(C)/C(=N\S(=O)(=O)c1ccc(F)cc1)c1ccccc1	1	-1	0.6%	1%	8	-7.3	-8
Cc1ccc2nc(NC(=O)COC(=O)CSc3nc(C)cc(C)n3)sc2c1	-23	8	-4.8%[38.3 µM]	u	-6	0.6	0
CC(=O)c1cccc(NC(=O)C2CCCCC2)c1	4	-26	-5.6%	-11%	-3	-0.6	-16
CCOc1cc(/C=N/NC(=O)c2cccs2)cc([N+](=O)[O-])c1O	-87*	-12	-0.4%	-13%	x	-5.9	-9
COc1cc(OC)c(OC)cc1CN1CCCC(C(=O)c2ccccc2SC)C1 (stereo not drawn)	-11	5	-0.1%	13%	-5	-4.9	-32
Cc1ccc(-c2nc(CS(=O)(=O)CC(=O)N3CCN(C)CC3)c(C)o2)cc1	3	-13	0.0%	8%	0	-0.4	-3
O=C(OCc1c(-c2ccccc2)ncc2ccccc12)c1ccc(C(F)(F)F)cc1	0	x	1.1%	x	5	0.0	-2
CC(C)(C)c1ccc(NC(=O)Nc2ccc(F)cc2)cc1	2	7	2.4%	14%	5	-0.9	-12
O=C(CSc1nc2ccccc2c(=O)n1-c1ccccc1F)N1CCOCC1	8	x	0.9%	x	-2	0.4	8
C/C=C/c1cccc(-c2nc(C(=O)N3CCCCC3)cc3c2[C@@H](CCO)N(C(=O)NC(C)C)C3)c1	4	x	-0.6%	x	1	x	x
Cc1occc1C(=O)N1CCCC(Nc2ccc(C(C)C)cc2)C1 (stereo not drawn)	-16	-3	5.8%	10%	-5	-5.1	8
O=C(NC(=S)N1CCN(c2ccc([N+](=O)[O-])cc2)CC1)c1ccccc1F	5	0	-1.9%	15%	4	-0.1	-9

Ordered by the number under CtBP-E1A blk (smallest number first): 4 of the compounds above.
| canonical_smiles | CtBP-E1A blk |
| --- | --- |
| CC(=O)c1cccc(NC(=O)C2CCCCC2)c1 | -3 |
| Cc1ccc(-c2nc(CS(=O)(=O)CC(=O)N3CCN(C)CC3)c(C)o2)cc1 | 0 |
| O=C(NC(=S)N1CCN(c2ccc([N+](=O)[O-])cc2)CC1)c1ccccc1F | 4 |
| CCNC(=O)C1(C)CCCN(C(=O)c2cc3ccccc3s2)C1 (stereo not drawn) | 5 |

Sorted by length of the SMILES (smallest number first): part of the list above.
SMILES	Six1-Eya2 blk	TRPV1 potentiator	PINK1 modulator	Sfp inh	CtBP-E1A blk	D2 ag	D2 PAM
O=C(CSc1nc2ccccc2c(=O)n1-c1ccccc1F)N1CCOCC1	8	x	0.9%	x	-2	0.4	8
Cc1ccc2nc(NC(=O)COC(=O)CSc3nc(C)cc(C)n3)sc2c1	-23	8	-4.8%[38.3 µM]	u	-6	0.6	0
CCn1cc(C(=O)NCCc2ccccc2)c(=O)c2cc(S(=O)(=O)N(C)C)ccc21	9	-10	4.1%	-3%	5	0.4	-4

Later entries.
SMILES	Six1-Eya2 blk	TRPV1 potentiator	PINK1 modulator	Sfp inh	CtBP-E1A blk	D2 ag	D2 PAM
COc1cc(OC)c(NC(=S)NCc2ccc(F)cc2)cc1Cl	-12	2	-1.8%	3%	0	0.3	-24
CC(C)(C)C(=O)OCCn1c(=O)c2cc3c(=O)n(CCOC(=O)C(C)(C)C)c(=O)c3cc2c1=O	2	2	4.1%	17%	0	-0.3	-5
OCC1(Cc2ccccc2)CCN(Cc2ccc(-c3ccco3)cc2)CC1	-12	15	9.4%	u	-21	-5.9	-2
CCCCc1nn2c(N)c(/C=C3\C=Nc4ccccc43)c(=O)nc2s1	-11	14	29%	0%	2	1.6	-4
CC(c1ccco1)N(C(=O)c1ccccc1NS(=O)(=O)c1cc([N+](=O)[O-])ccc1Cl)c1ccccn1 (stereo not drawn)	2	5	0.9%	u	-3	-0.3	-1
CC(C)OCCCn1c(NN)nc2ccccc2c1=O	18	-3	0.1%	0%	-7	1.8	-4
CCCCCCN1CC(O)=C(c2nc3ccccc3[nH]2)C1=N	-3	10	x	4%	12	-0.1	5
Cc1csc(NC(=O)CSCc2c(C)noc2C)n1	7	15	-3.9%	x	5	-0.7	2
Cc1ccc2[nH]c(=O)c(CN(Cc3ccco3)C(=O)c3ccncc3)cc2c1	-1	9	u	-18%	2	0.1	-2
O=C(C1CC1)N1CCc2cc(Br)cc(S(=O)(=O)NCc3ccc4c(c3)OCO4)c21	-4	-4	-0.5%	14%	-6	-2.5	-23
Cc1cc(C)c2nc(Cl)c(C3NC(=O)c4ccccc4N3)cc2c1 (stereo not drawn)	8	6	7.3%	4%	-4	-6.6	-3
Cc1ccnc(NS(=O)(=O)c2ccc(NC(=O)Cc3ccc(F)cc3)cc2)n1	1	26	0.5%	4%	x	5.3	-2
Cc1nnc(SCC(=O)N2CCc3ccccc3C2)n1-c1ccccc1	20	6	0.9%	5%	-6	-12	-5
